PINK1 expr mod – A Quantitative High throughput Screen to Identify Chemical Modulators of PINK1 Expression; PINK1 immunofluorescence, high-content cytometry, 24 h; Potency, µM (series often up to 76.6 µM), without a hit: at the top dose activation (PINK1 increase), actives largely listed as activators; 410,000 tested, 0.2% active; AID 624263, 2012; active = well fitted activation curve with a large enough effect; inconclusive = small, poorly fitted or top-dose-only effect; inactive = flat fitted curve, though single readings scatter; cell line not stated here;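 further: potency means the concentration at half of the fitted maximal effect; % of control where 0% means no effect; nearly all actives have a fitted effect of over 65% in size; a mitochondrial uncoupler was the plate control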
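Compound titrations (5 concentrations, 24 h) on a stable cell line; DMSO and CCCP controls. Endpoint: fixed-cell PINK1 immunofluorescence with mitochondrial, cell and nuclear markers, scanned by microplate cytometer.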
Sfp PPTase inh – qHTS Assay for Inhibitors of Bacillus subtilis Sfp phosphopantetheinyl transferase (PPTase) | AID 1490, 2009 | 4'-phosphopantetheinyl transferase ffp (Bacillus subtilis), Q9F4F7 | Biochemical Sfp PPTase activity, qHTS | Potency, µM, inactives show max response, negative = inhibition, hits mostly inhibitors | 310,000 tested, 3.5% active; active means well fitted inhibition curve with a large enough effect; inconclusive means small, poorly fitted or top-dose-only effect, or another doubt; inactive means no such curve, though single readings can be large or run the other way;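 further: the enzyme is Sfp with the accession as filed and its product quenches rhodamine fluorescence; potency means the concentration at half of the fitted maximal effect; 0% = enzyme reaction without inhibitor and -100% = no enzyme wells; top concentration of the series not given in the record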
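After 15 min at room temperature with compound, 15 nM Sfp received 5 uM rhodamine-CoA plus 12.5 uM BHQ-2-ybbR (50 mM Hepes pH 7.6, 10 mM MgCl2). Rate came from the fluorescence difference over 30 min, ex 525/em 598 nm.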
TRPV1 potentiator – HTS Assay for Compounds that Act as Potentiators of the Vanilloid Receptor 1; Transient receptor potential cation channel subfamily V member 1 (Homo sapiens), Q8NER1; TRPV1-expressing cells, Fluo-8 calcium influx, capsaicin EC20 potentiation; host cell line not named in the record; control for the full effect not named in the record; potentiation, % at 8.33 µM; 320,000 tested, 0.02% active; active means potentiation above 80%; inconclusive means 30% to 80%; inactive means below 30%; further: 0% is about no effect
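Cells expressing TRPV1 were dye-loaded with Fluo-8 and read kinetically: 10 s baseline, 3 min after compound (agonist portion), then 2 min after EC20 capsaicin (allosteric enhancer portion). Calcium-bound dye fluorescence at 480/520 nm.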
Menin MLL FP FL – qHTS Assay for Inhibitors Targeting the Menin-MLL Interaction in MLL Related Leukemias: Competition With Fluorescein Labeled MLL-derived Peptide | Fluorescence polarization, fluorescein-MLL peptide displacement from menin | FP activity change, % at 61.4 µM | 290,000 tested, under 10 active; inconclusive = falling polarisation curve, or a change in total fluorescence; inactive = total fluorescence flat and polarisation flat or rising; no compound was filed as active; the % refers to the polarisation; negative = inhibition;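 further: % of control where 0% means no effect; inhibitors lower the polarisation; unlabelled MLL peptide was the positive control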
ClpP mod – qHTS Assay for Activators of ClpP | ATP-dependent Clp protease proteolytic subunit (Bacillus subtilis (strain 168)), P80244 | purified B. subtilis ClpP, FRET peptide cleavage, 20 min | Potency, µM (highest dose often 57.5 µM), without a hit: at the top dose activity change, negative = active | 340,000 tested, 1.9% active; active = well fitted falling curve with a large enough effect; inconclusive = small, poorly fitted or top-dose-only effect; inactive = no such curve, though single readings can be large or run the other way; further: potency means the concentration at half of the fitted maximal effect; the source files actives as falling curves though it sought activators and does not explain the sign; nearly all actives have a fitted effect of over 65% in size; many hits overshoot -100%
Target sequence (P80244 whole entry, looked up): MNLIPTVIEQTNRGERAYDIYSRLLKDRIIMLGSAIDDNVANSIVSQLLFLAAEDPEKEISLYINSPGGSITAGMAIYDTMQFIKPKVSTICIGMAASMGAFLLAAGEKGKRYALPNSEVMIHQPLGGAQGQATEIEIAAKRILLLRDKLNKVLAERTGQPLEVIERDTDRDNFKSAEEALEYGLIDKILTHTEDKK
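Purified B. subtilis ClpP, 10 microg/mL final in Tris/HCl pH8 with KCl, BSA, glycerol and Tween-20, cleaved an Abz/nitrotyrosine-quenched decapeptide. Fluorescence (ex 320, em 430) was read at 0 and 20 min at room temperature. Delta was normalized to 5.8 microM ADEP and DMSO/no-enzyme controls.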
TRPML1 agonist – qHTS for Agonists of the Human Mucolipin Transient Receptor Potential 1 (TRPML1); AID 624414, 2012; TRPML1-expressing cells, Ca2+ dye fluorescence, FDSS; host cell line not named in the record; reference of the full effect not given here; Mucolipin-1 (Homo sapiens), Q9GZU1; activation, % (test concentration not listed); 410,000 tested, 0.12% active; in the data active = activation above about 50%; inconclusive = about 30% to 50%; inactive = below about 30%; further: 0% is about no effect; the text of the record puts the active cut at 80%
Target sequence (Q9GZU1 whole entry, looked up): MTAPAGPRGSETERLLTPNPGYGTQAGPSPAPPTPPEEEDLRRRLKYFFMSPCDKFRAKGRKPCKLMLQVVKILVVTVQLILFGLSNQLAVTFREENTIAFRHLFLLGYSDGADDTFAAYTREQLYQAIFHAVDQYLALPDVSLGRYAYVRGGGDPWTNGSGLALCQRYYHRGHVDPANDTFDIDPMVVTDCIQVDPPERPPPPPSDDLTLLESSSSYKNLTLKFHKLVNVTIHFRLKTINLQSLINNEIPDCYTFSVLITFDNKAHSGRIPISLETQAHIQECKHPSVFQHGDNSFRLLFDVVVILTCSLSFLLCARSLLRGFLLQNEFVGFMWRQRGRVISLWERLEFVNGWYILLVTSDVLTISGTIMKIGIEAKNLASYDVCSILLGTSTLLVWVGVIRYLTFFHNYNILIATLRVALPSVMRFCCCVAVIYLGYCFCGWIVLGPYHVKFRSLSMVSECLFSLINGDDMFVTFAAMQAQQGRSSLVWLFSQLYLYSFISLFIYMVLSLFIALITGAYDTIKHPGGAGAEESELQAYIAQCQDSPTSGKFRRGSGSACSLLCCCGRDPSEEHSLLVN
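Tet-induced TRPML1-DL cells, 1,500 per well, cultured overnight, were loaded with a no-wash Ca2+ dye for 45–90 min. Calcium fluorescence was recorded on the FDSS for 110 s after compound addition, before the EC80 agonist (4 uM 54-4) was added.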
TRPML1 blocker – qHTS for Inhibitors of the Human Mucolipin Transient Receptor Potential 1 (TRPML1); Mucolipin-1 (Homo sapiens), Q9GZU1; 390,000 tested, 0.02% active; TRPML1-inducible cells, Ca2+ dye fluorescence, FDSS; active compounds read low; inhibition of EC80 agonist-evoked calcium signal; activity change, negative = inhibition, % (concentration not given with the values); in the data active means activity change below about -50%; inconclusive means about -30% to -50%; inactive means above about -30%;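 further: stimulus is agonist 54-4 at its EC80 concentration; on the % scale 0 is the no-effect control and ±100 the full control effect; the text of the record puts the active cut at -80%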
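Tet-induced TRPML1-DL cells loaded with Ca8 no-wash calcium dye were read kinetically on FDSS. Compound addition was followed by EC80 agonist 54-4 (4 uM final); inhibition was read over 110 s.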
An asterisk follows results filed as active; i = inactive; u = inconclusive; x = not tested or not shown; & = joins results of further samples; [ ] = another dose, or the depositor's remark. No enrichment for hits, and some 4.4% of all compounds hit somewhere here.

#	Compound	PINK1 expr mod	Sfp PPTase inh	TRPV1 potentiator	Menin MLL FP FL	ClpP mod	TRPML1 agonist	TRPML1 blocker
1	COc1cccc(CSc2nc3cc(OC)c(OC)cc3c3nc(CCn4nc(C)cc4C)nn23)c1	2.2%	x	x	x	-1.0%	1.0	0.3
2	COCCNC(=O)c1cc(-c2ccccc2)nn1CC1CC(c2cccnc2)=NO1 (configuration not stated)	-0.7%	x	x	x	-2.5%	0.1	1.2
3	CCN1CCCC1CNC(=O)Cn1nc(C)n2nc(-c3ccccc3)cc2c1=O (configuration not stated)	-0.8%	0.3%	-10.8	x	-3.6%	0.2	-9.8
4	Cc1ccc2nc(NC(=O)CSc3nc4ccccc4o3)sc2c1	0.2%[38.3 µM]	8.6%	1.2	12.9	-13.8%	-0.1	2.8
5	Cc1cc(Cl)ccc1OCC(=O)NCCCn1ccnc1	-3.2%	3.3%	0.7	7.3	-1.4%	0.4	-8.7
6	O=C(NCc1ccccc1)c1ccc(-c2cn[nH]c2)c2ccoc12	-1.2%	x	x	x	4.2%	-0.9	51.9
7	COc1ccccc1CNC(=O)c1ccc2nc(N3CCCCC3)sc2c1	1.9%	x	x	x	0.2%	-0.7	u
8	CCC(C)Sc1oc(-c2ccco2)nc1S(=O)(=O)c1ccc(C)cc1 (configuration not stated)	1.8%	x	x	x	-8.5%	3.9	33.9
9	O=c1cc(-c2ccccc2)nc2cc(-c3ccc(F)cc3)[nH]n12	8.4%&7.7%	x	x	x	0.0%	0.3&-0.1	15.5&-4.9
10	COc1ccc(/C=N/NC(=O)CNC(=O)C2COc3ccccc3O2)cc1OC (configuration not stated)	-0.8%	12.1%	4.0	1.6	x	-0.6	-12.2
11	Cc1ccc(S(=O)(=O)N/N=C/c2cccc3nccnc23)cc1	1.5%	-16.9%	16.0	4.3	1.3%	-0.9	10.2
12	CC1CCCC(NC(=O)COC(=O)Cc2ccc(Br)cc2)C1C (configuration not stated)	-0.3%	20.6%	-17.4	0.9	x	0.9	-3.9
13	Cn1c(=O)[nH]c(=O)c2c1nc(NCc1ccccc1)n2Cc1ccc(F)cc1	5.8%	15.3%	5.5	2.5	-2.6%	-0.2	-15.3
14	CC(C)(C)c1ccc(C(=O)Nc2ccc(F)cc2)s1	13.5%	u	x	4.9	x	0.6	14.9
15	CCN(CC)C(=O)CSc1nc2ccccc2c(=O)n1-c1ccccc1OC	-2.4%	-3.3%	14.8	1.4	-7.2%	2.9	30.4
16	CCCc1nc2ccccc2n1Cc1ccccc1OC	5.6%	9.0%	-20.0	-0.6	-1.9%	2.7	37.9
17	COc1ccc(NC2c3ccccc3C(=O)N2c2ccccn2)cc1Cl (configuration not stated)	1.9%	-23.1%	-3.9	3.7	-0.3%	2.0	21.2
18	CC(NCc1ccc(S(N)(=O)=O)cc1)C(=O)NCc1ccccc1 (configuration not stated)	-1.1%	13.5%	-5.2	0.5	-0.6%	3.4	2.6
19	Cc1c(C=O)cnn1CCC(=O)O	x	x	x	x	1.4%	-0.1	-2.1
20	Cc1cccc(NC(=O)C(=O)NCc2ccccn2)c1	-0.6%[38.3 µM]	11.3%	-3.6	2.1	-0.2%	-0.2	0.1
21	CCOc1ccc(CN2C(=O)c3ccccc3C2=O)cc1C(=O)Nc1nnc(SCC)s1	u	-3.0%	-15.7	4.3	32.8%	0.0	27.4
22	CC1CCN(C(=O)CSc2nnc(CNC(=O)c3ccco3)o2)CC1	-1.1%	2.6%	7.0	-3.2	-1.6%	0.4	-8.1
23	CSc1sc(C(=O)N(C)C)cc1S(=O)(=O)C(C)C	3.7%	-3.1%	17.6	7.9	0.1%	-0.3	17.0
24	CC(C)(C)C(=O)NCc1ccc(C(=O)CSc2nnc(-c3ccncc3)n2C2CC2)s1	2.3%	x	28.2	x	-2.3%	1.7	11.9
25	CC1(C(=O)Nc2cccnc2)Cc2c(-c3ccc4c(c3)OCO4)ccnc2O1 (configuration not stated)	3.7%	x	x	x	4.2%	-0.6	22.4
26	O=C(Nc1cc(S(=O)(=O)Nc2ccc(Cl)cc2)ccc1O)c1ccc(S(=O)(=O)N2CCCCCC2)cc1	9.5%	3.16µM*	-38.9	13.1	x	0.7	-9.8
27	Cc1ccc(F)cc1NC(=O)CCc1c(C)[nH]c(=O)c(C#N)c1C	2.8%	8.8%	5.7	-3.0	x	-0.5	0.4
28	COc1ccccc1Nc1ncnc2c1nc1n2CCCCC1	-0.1%	x	x	x	1.5%	0.3	-19.4
29	CN(C)c1ccc(/C=C/C(=O)c2ccc(O)cc2)cc1	5.3%	x	x	x	-1.1%	87.0*	-19.9
30	CCc1c(O)nc(SC2CC(=O)N(c3ccccc3)C2=O)[nH]c1=O (configuration not stated)	0.1%	u	8.1	0.3	-2.2%	-0.5	-11.9
31	COCCN(C(=O)c1ccco1)c1nnc(-c2ccc(OC)c(OC)c2)s1	1.3%	-2.4%	24.6	1.0	-21.2%	-0.4	-6.0
32	CCOC(=O)c1sc(N/N=C/c2ccccc2)nc1C	2.7%	35.5µM*	4.4	13.2	x	-0.1	16.2
33	COc1ccc(CC(=O)NC2CC(=O)N(c3ccc(C)c(C)c3)C2)cc1OC (configuration not stated)	-0.1%	x	x	x	-1.6%	0.6	28.7
34	Cc1nc(-c2ccc(Cl)cc2)sc1CCNC(=O)c1cccs1	5.6%	x	x	x	4.8%	1.0	-9.3
35	CCn1c(SCC(=O)NCCc2ccccc2)nc2c(c1=O)SC(C)C2 (configuration not stated)	1.1%	-3.7%	24.9	4.0	-1.5%	0.6	-2.0
36	O=C(O)CCC(=O)Nc1ccccc1C(=O)NC1CCCCC1	0.0%	14.4%	-0.3	0.1	-15.3%	-0.4	-7.3
37	O=C(c1ccccc1)n1ccc(-c2cnc(-c3ccccc3)s2)n1	-1.1%	6.8%	-0.8	1.6	46.4%	2.1	-8.1
38	CC(C)Cc1nnc(NC(=O)CN2C(=O)C3CCCCC3C2=O)s1 (configuration not stated)	-0.1%	x	11.2	x	-0.7%	0.6	3.2
39	CSCCNC(=O)c1ccc(C(C)(C)C)cc1	7.5%	4.6%	-3.5	3.6	-1.0%	-0.3	11.0
40	O=[N+]([O-])c1ccccc1/C=C/C=N/N1CCCCC1	-0.5%	18.9%	-5.3	-1.5	0.8%	-1.4	-7.2
41	O=C(Nc1cccc(Oc2ccccc2)c1)C1Cc2c(-c3cccc(F)c3)ccnc2O1 (configuration not stated)	3.1%	x	x	x	-17.2%	0.4	12.8
42	O=c1c2ccccc2n2c(-c3ccccc3F)nnc2n1CCc1ccccc1	-0.2%	x	x	x	-12.5%	-1.1	1.7
43	N#Cc1ccc2c(c1)C[C@]1(c3ccsc3)Oc3c(c(=O)oc4ccccc34)C2O1	x	-16.0%	i	13.6[11.7 µM]	x	x	x
44	CNC(=S)NNC(=O)COc1cccc(C)c1C	-0.1%	32.0%[activator]	3.3	0.2	-0.7%	-0.7	14.9
45	Cc1cc2c(cc1S(=O)(=O)NCc1ccccc1Cl)OCC(=O)N2	-0.5%	x	x	x	-1.0%	-0.8	-3.1
46	O=C(CS(=O)(=O)Cc1ccccc1)Nc1ncccn1	1.6%	13.3%	-5.2	-2.1	-0.6%	1.6	-2.3
47	CCOC(Cn1cc(C)c(=O)[nH]c1=O)OCC	2.4%	20.0%	3.3	0.4	0.6%	-0.3	1.2
48	CCCC(OC(=O)CN1C(=O)COc2ccccc21)C(=O)NC1CCCC1 (configuration not stated)	-0.2%[38.3 µM]	-19.5%	u	2.5	-2.4%	-0.5	6.7
49	COc1cc(S(=O)(=O)N(C)C)ccc1F	-0.3%	-0.3%	0.3	4.1	0.4%	-0.8	-0.8
50	COc1ccc(C2=NOC(C(=O)NCc3cccs3)C2)cc1OC (configuration not stated)	3.5%	5.8%	3.4	3.7	-1.8%	-0.1	-5.6
51	CC(=O)c1ccc(N2CCN(C(=O)c3ccc(OCc4c(C)noc4C)cc3)CC2)cc1	5.9%	-0.8%	3.3	-0.2	-6.0%	0.9	38.0
52	CCOc1ccc(NC(=S)Nc2cc(-c3ccccc3)[nH]n2)cc1	4.7%	8.9%	-1.1	0.6	-0.7%	2.5	-0.7
53	O=C(COC(=O)c1cc([N+](=O)[O-])ccc1N1CCOCC1)NCc1ccc(F)cc1	0.1%	-3.6%	-9.0	-2.1	0.1%	0.2	3.5
54	CC(C)n1cc(/C(N)=N/O)c(=O)n(Cc2ccccc2)c1=O	0.0%	11.9%	10.6	-1.1	-0.5%	2.4	29.4
55	CCOC(=O)/N=C(/NC(=O)Nc1ccc(C(=O)OCC)cc1)OC	0.9%	8.7%	-1.9	-0.3	-5.7%	0.1	6.1
56	CC(=O)c1cccc(NC(=O)c2cccc3ccccc23)c1	-0.8%	11.7%	-2.1	6.3	0.0%	0.8	10.6
57	NC(=O)C1CCCCc2c1[nH]c1ccc(Cl)cc21 (configuration not stated)	-0.8%	4.7%	-3.9	-0.2	-0.8%	0.4	4.6
